# TRPML1 agonist – activates the human TRPML1 channel | activation, % (test concentration not listed) | TRPML1-expressing cells, Ca2+ dye fluorescence, FDSS; host cell line not named in the record; reference of the full effect not given here | hit rate 0.12% among 410,000 | Q9GZU1; in the data active = activation above about 50%; inconclusive = about 30% to 50%; inactive = below about 30%; also: 0% is about no effect; the text of the record puts the active cut at 80%
# Target sequence (Q9GZU1 whole entry, looked up): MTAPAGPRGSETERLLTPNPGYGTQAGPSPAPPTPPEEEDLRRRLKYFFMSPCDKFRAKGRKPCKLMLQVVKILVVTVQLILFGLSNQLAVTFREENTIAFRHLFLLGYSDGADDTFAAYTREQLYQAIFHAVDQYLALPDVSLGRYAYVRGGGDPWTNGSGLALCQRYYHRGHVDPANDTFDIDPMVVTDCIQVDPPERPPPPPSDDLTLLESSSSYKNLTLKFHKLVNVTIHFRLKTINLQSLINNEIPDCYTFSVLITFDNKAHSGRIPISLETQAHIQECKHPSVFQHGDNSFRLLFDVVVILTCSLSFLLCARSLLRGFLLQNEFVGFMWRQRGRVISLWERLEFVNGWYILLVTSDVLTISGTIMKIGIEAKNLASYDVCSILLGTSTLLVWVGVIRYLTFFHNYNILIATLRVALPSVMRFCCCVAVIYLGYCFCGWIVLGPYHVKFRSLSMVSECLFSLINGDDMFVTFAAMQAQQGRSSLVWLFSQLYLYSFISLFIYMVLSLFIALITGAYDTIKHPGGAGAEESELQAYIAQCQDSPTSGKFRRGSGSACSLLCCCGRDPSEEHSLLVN
#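 Tet-induced TRPML1-DL cells, 1,500 per well, cultured overnight, were loaded with a no-wash Ca2+ dye for 45–90 min. Calcium fluorescence was recorded on the FDSS for 110 s after compound addition, before the EC80 agonist (4 uM 54-4) was added.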
# D2 ag – activates the human D2 dopamine receptor. P14416. activation, % (no concentration beside the values). DiscoveRx PathHunter D2 beta-arrestin, luminescence, 90 min; 100% = 57 uM dopamine signal. hit rate 0.084% among 360,000; in the data active = activation above about 40%; inconclusive = about 15% to 40%; inactive = below about 15%; also: compound concentration not given in the record; the text of the record calls up to 30% inactive
# Target sequence (P14416 whole entry, looked up): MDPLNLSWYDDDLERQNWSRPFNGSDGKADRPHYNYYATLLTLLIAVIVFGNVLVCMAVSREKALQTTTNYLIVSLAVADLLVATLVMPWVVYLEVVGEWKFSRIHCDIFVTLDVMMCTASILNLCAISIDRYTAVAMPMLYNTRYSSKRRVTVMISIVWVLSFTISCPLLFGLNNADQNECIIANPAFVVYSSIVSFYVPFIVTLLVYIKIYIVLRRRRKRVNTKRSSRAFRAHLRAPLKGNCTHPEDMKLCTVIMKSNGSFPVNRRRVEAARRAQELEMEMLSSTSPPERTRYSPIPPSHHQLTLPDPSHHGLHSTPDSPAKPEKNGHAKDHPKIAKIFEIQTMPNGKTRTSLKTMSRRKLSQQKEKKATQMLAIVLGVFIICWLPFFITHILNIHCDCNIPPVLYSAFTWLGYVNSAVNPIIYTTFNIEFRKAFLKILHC
#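 Agonist mode: compounds alone added to overnight-plated D2 PathHunter cells for 90 min at 37 C, with 57 uM final dopamine (EC100) defining full response. Beta-arrestin recruitment detected by chemiluminescent reagent, read after 1 h at ambient temperature.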
# CtBP-E1A inh – inhibitors of CtBP/E1A interaction | AlphaScreen GST-E1A/His-CtBP binding, 1536-well; active compounds read low; control for the full effect not named in the record | activity change, % (no concentration beside the values) | hit rate 0.49% among 340,000 | AID 651724; in the data active means activity change below about -65%; inconclusive means about -30% to -65%; inactive means above about -30%; also: % is scaled to controls: 0 for no effect and ±100 for the full control effect
#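 AlphaScreen with 125 nM GST-E1A and 125 nM His-CtBP (5X stocks) in Tris pH 8.0, 300 mM NaCl, BSA, Tween 20, TCEP. Compounds preincubated 2 h at 37 deg C, then glutathione donor/nickel acceptor beads added for 1 h at 37 deg C in dark.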
# PINK1 expr mod – changes PINK1 expression | PINK1 immunofluorescence, high-content cytometry, 24 h | Potency, µM (top dose mostly 76.6 µM), for inactives: at the highest dose activation (PINK1 increase), hits mostly activators | hit rate 0.2% among 410,000; active = well fitted activation curve with a large enough effect; inconclusive = small, poorly fitted or top-dose-only effect; inactive = flat fitted curve, though single readings scatter; cell line not stated here;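 also: potency is read from the fitted curve at half-maximal effect; % of control where 0% means no effect; nearly all actives have a fitted effect of over 65% in size; a mitochondrial uncoupler was the plate control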
#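 Measures PINK1 amount and localization on or inside mitochondria by immunofluorescence. Stable cells get compounds at 5 concentrations for 24 hours before fixation and staining; CCCP controls included.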
# TRPML1 inh – human mucolipin-1 channel inhibition. Q9GZU1. AID 624415. hit rate 0.02% among 390,000. TRPML1-inducible cells, Ca2+ dye fluorescence, FDSS; active compounds read low; inhibition of EC80 agonist-evoked calcium signal. activity change, negative = inhibition, % (test concentration not listed); in the data active means activity change below about -50%; inconclusive means about -30% to -50%; inactive means above about -30%;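 also: stimulus is agonist 54-4 at its EC80 concentration; % is scaled to controls: 0 for no effect and ±100 for the full control effect; compound concentration not given in the record; the text of the record puts the active cut at -80%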
#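 TRPML1-DL cells, Tet-induced overnight (~16 h, 37 °C) at 1,500 cells/well, were loaded with Ca8 no-wash dye plus quencher for 45-90 min at room temperature. Compounds were pinned during FDSS kinetic reading; agonist 54-4 at EC80 (4 uM final) then added.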
# Six1-Eya2 inh – Six1/Eya2 interaction inhibition | AID 651725 | hit rate 0.56% among 360,000 | Q15475+O00167 | activity change, % (test concentration not listed) | AlphaScreen GST-Six1/His-Eya2 binding, biochemical; active compounds read low; control for the full effect not named in the record; in the data active = activity change below about -65%; inconclusive = about -30% to -65%; inactive = above about -30%; also: % is scaled to controls: 0 for no effect and ±100 for the full control effect
#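 AlphaScreen luminescence read after one hour at 37 °C in darkness. Pin-transferred compounds met GST-Six1 and His-Eya2 protein (5X stock 250 nM/500 nM) plus glutathione donor and Ni-chelate acceptor beads (5X, 50 ug/mL).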
# * marks the source's active call; other numbers are inactive results; u = inconclusive; x = no result given; & = joins results of further samples; [ ] = remark or other dose.
SMILES,TRPML1 agonist,D2 ag,CtBP-E1A inh,PINK1 expr mod,TRPML1 inh,Six1-Eya2 inh
COc1ccc(Nc2nnc(Cc3ccc(Cl)cc3)c(=O)[nH]2)c(OC)c1,0.6,-0.9,-2,-0.4%,-2,0
CCOc1ccc(N2CC(C(=O)Nc3ccc(S(=O)(=O)NCC4CCCO4)cc3)CC2=O)cc1 (configuration not stated),-0.4,0.2,-12,3.4%,11,-17
Cc1ccc(/C=C/C(=O)N2CCC(c3nc4ccccc4o3)CC2)cc1,3.8,x,x,0.7%,5,x
O=C(Cc1n[nH]c(=O)c2ccccc12)OCC(=O)c1ccc(OC(F)F)cc1OC(F)F,1.6,-3.3,-3,-0.4%,33,11
CCCCC(C(=O)NC(C)(C)C)N(Cc1ccccc1Cl)C(=O)c1snc(C(N)=O)c1N (configuration not stated),3.7,-0.7,0,16%,2,4
O=C(COC(=O)CSc1ccc(F)cc1)NNC(=O)c1ccc([N+](=O)[O-])cc1,-0.4,-2.2,4,0.7%,-5,-2
CC(C)C(C)NC(=O)COc1ncnc2ccccc12 (configuration not stated),-0.7,-0.9,-11,-1.9%,12,0
COC(=O)C1=C(C)OC(N)=C(C#N)C1c1ccsc1 (configuration not stated),0.5,-2.4,-13,-0.6%,-11,-3
CC(=O)Oc1ccc(C(=O)Nc2ccc(S(=O)(=O)NCC3CCCO3)cc2)cc1 (configuration not stated),0.9,0.2,-10,6.5%,11,-13
Cc1noc(C)c1-c1nc(CS(=O)(=O)c2ccc(Cl)cc2)no1,1.3,3.8,11,0.5%,8,5
COc1ccc2c(c1)CCN(C(=O)CCl)C2C1C(=O)CCCC1=O (configuration not stated),-0.5,-3.8,1,0.4%,12,1
Cc1cccc(-n2c(SCC(=O)NCc3ccc4c(c3)OCO4)nc3ccccc3c2=O)c1,2.7,2.4,2,3.4%,33,-6
CCOC(=O)N1CCC(NC(=O)c2cc3cc4cc(OC)ccc4nc3o2)CC1,-1.1,-2.2,-17,1.1%,7,-14
CCOc1ccc(NC(=O)CSc2nc3c(c(=O)[nH]2)CCCC3)cc1,2.3,x,x,0.5%,-18,x
CCc1ccc(N(CC(=O)NCc2cccnc2)S(=O)(=O)c2ccccc2)cc1,-0.4,-6.0,-7,-0.5%,-12,-18
NNC(=O)c1sccc1OCc1ccc(Cl)cc1Cl,-0.9,4.7,-18,1.8%,5,0
C[C@H]1O[C@@H](n2cc(F)c(=O)[nH]c2=O)[C@H](O)[C@@H]1O,0.0,-4.1,6,-0.5%,-3,4
CCCSc1ncnc2sc(C)c(C)c12,0.5,1.5,x,3.9%,-10,8
Cc1cc(C)c([N+](=O)[O-])cc1NCC(=O)N1CCN(c2ccccc2)CC1,0.8,-3.8,-4,0.6%,-6,-13
COc1cc(C(c2c(C)[nH][nH]c2=O)c2c(C)[nH][nH]c2=O)ccc1OS(=O)(=O)c1ccc(C)cc1,0.1,-1.7,-8,2.2%,0,-9
CC(=O)c1cc(C(=O)Nc2ccc(C(=O)O)cc2)oc1C,0.9,-1.5,0,-0.4%,0,-2
CC(Oc1ccc(F)cc1)c1ccnc2nc(/N=C/N(C)C)nn12 (configuration not stated),-0.2,-3.4,4,0.5%,51,10
O=C(Nc1nnc(C2CC2)s1)c1ccco1,-0.4,1.5,x,0.0%,19,4
COc1ccc(S(=O)(=O)N(C)CC(=O)NC2CCCC2)cc1Cl,-0.4,-1.4,-3,-2.1%,-5,0
COc1cccc(/C=N/NC(=O)N/N=C/c2cccc(OC)c2O)c1O,-0.5,-3.4,u,0.4%,-17,u

# Just TRPML1 inh, CtBP-E1A inh and TRPML1 agonist, for 2 of the compounds above:
structure	TRPML1 inh	CtBP-E1A inh	TRPML1 agonist
O=C(Nc1nnc(C2CC2)s1)c1ccco1	19	x	-0.4
COc1ccc(S(=O)(=O)N(C)CC(=O)NC2CCCC2)cc1Cl	-5	-3	-0.4

# Other records.
SMILES,TRPML1 agonist,D2 ag,CtBP-E1A inh,PINK1 expr mod,TRPML1 inh,Six1-Eya2 inh
CC1(c2nnc(-c3cccc(Cl)c3)o2)CC(c2ccccc2F)=NO1 (configuration not stated),0.6,-2.8,0,0.9%,8,1
CCOc1cc(C2c3c(n[nH]c3C)C(=O)N2c2ccc(C)cc2)ccc1O (configuration not stated),-1.0,-2.9,1,2.7%,5,0
C/C(=N\Nc1ccc(Cl)c(C(=O)O)c1)c1cccc2ccccc12,0.8,1.1,-24,4.3%,-8,u
Cc1ccc(-c2nnc(CSc3nnc(COc4cccc5ccccc45)n3-c3ccccc3)o2)cc1,2.8,-1.4,-6,-1.4%,-16,-17
COc1ccc(CC(=O)OCC(=O)NC(=O)NC(C)C)cc1,-0.7,-0.7,1,-3.1%,-1,-2
COc1ccc(Cl)cc1-c1cc(C(=O)NCc2ccccc2)[nH]n1,-0.7,-4.8,-14,0.7%,x,-19
Cn1cnnc1Sc1nc2ccccc2nc1NS(=O)(=O)c1ccccc1,0.5,-0.6,8,-1.6%[38.3 µM],9,-1
Cc1cc(=O)oc2cc(OC(=O)CCN3C(=O)c4ccccc4C3=O)ccc12,0.5,-0.4,-1,-2.5%[38.3 µM],0,-2
C[C@H](CO)N1C[C@H](C)[C@@H](CN(C)CC2CC2)Oc2c(NC(=O)Cc3ccccc3)cccc2C1=O,-0.7,3.0,1,4.0%,-14,0
COc1ccc(C(=O)/C=C/c2ccc(OC)c(O)c2)c(F)c1,0.7,-1.3,4,-2.1%,33,-1
COc1ccc(-c2cc(C(=O)NC3=NCCS3)c3ccccc3n2)cc1OC,-0.6,-2.3,-4,0.2%,6,2
CCN(C(=O)CSc1nc2ccccc2c(=O)n1-c1ccc(C)cc1)C1CCS(=O)(=O)C1 (configuration not stated),0.0,-3.0,3,0.8%,3,6
COc1cc(C(=O)Nc2cc(C)ccn2)ccc1OCC(=O)N1CCOCC1,0.8,1.4,0,2.2%,-1,0
Cc1ccc(-c2nc(CCNC(=O)C(=O)Nc3ccc(C)c(Cl)c3)cs2)cc1,3.8,x,x,0.1%,-2,x
CCCCCCCc1ccc(-c2ccc(O)cc2)nc1,0.3,-0.6,x,8.6%,23,-8
NC(=O)C1(N2CCCCC2)CCN(C(=O)Nc2ccccc2C(F)(F)F)CC1,-0.1,6.3,8,3.4%,4,8
N=c1n(CC(=O)c2cccs2)c2ccccc2n1Cc1ccccc1,1.3,u,-16,0.9%,8,5
CCC(CC)NC(=O)C1CC(=O)N(CCc2ccc(F)cc2)C1 (configuration not stated),-0.5,-1.9,x,1.2%,-2,2
CCOC(=O)C1=C(C)Nc2nnnn2C1c1ccccc1Cl (configuration not stated),1.9,-0.5,0,9.2%,-21,8
CC(C)CN1CCN(Cc2cccc3ncccc23)CC1CCO (configuration not stated),0.1,-6.9,0,-0.2%,3,-4
O=C(c1cc(Cl)c(=O)n(Cc2ccc(Cl)cc2)c1)N1CCOCC1,-0.3,-2.4,-1,42%[38.3 µM],-2,5
CCC1(c2cccc(Cl)c2)NC(=O)N(Cc2cc(C(=O)OC)c(C)o2)C1=O (configuration not stated),0.6,-0.7,-4,-1.7%,8,-9
Cc1ccc(NC(=O)C(Cc2ccccc2)n2cccc2)cc1 (configuration not stated),0.7&2.0,0.1,-11,13%&2.4%,-2&-13,-16
Cc1[nH]c2ccccc2c1C(=O)CN1CCCC(C)C1 (configuration not stated),-0.6,-3.7,2,6.0%,0,0
COc1cccc(C(=O)Nc2ccc(Cl)c(C(F)(F)F)c2)c1,1.5,-0.9,9,4.6%,-3,13

# Record cards, from the list above.
# Entry for Cc1ccc(-c2nc(CCNC(=O)C(=O)Nc3ccc(C)c(Cl)c3)cs2)cc1 : TRPML1 agonist = 3.8; D2 ag = x; CtBP-E1A inh = x; PINK1 expr mod = 0.1%; TRPML1 inh = -2; Six1-Eya2 inh = x
# Entry for Cc1ccc(-c2nnc(CSc3nnc(COc4cccc5ccccc45)n3-c3ccccc3)o2)cc1 : TRPML1 agonist = 2.8; D2 ag = -1.4; CtBP-E1A inh = -6; PINK1 expr mod = -1.4%; TRPML1 inh = -16; Six1-Eya2 inh = -17
# Entry for CCCCCCCc1ccc(-c2ccc(O)cc2)nc1 : TRPML1 agonist = 0.3; D2 ag = -0.6; CtBP-E1A inh = x; PINK1 expr mod = 8.6%; TRPML1 inh = 23; Six1-Eya2 inh = -8

# Going on with the list.
SMILES,TRPML1 agonist,D2 ag,CtBP-E1A inh,PINK1 expr mod,TRPML1 inh,Six1-Eya2 inh
OCCCCc1nccc2c1[nH]c1ccccc12,-0.1,-11,x,2.4%,-3,0
CC1(c2ccc3ccccc3c2)NC(=O)N(CC(=O)NCc2cccs2)C1=O (configuration not stated),0.7,4.1,x,1.2%,-12,8
Cc1cc(C)nc(-n2nc(C)cc2NC(=O)CNC(C)c2ccccc2)n1 (configuration not stated),0.3,0.4,7,2.0%,-2,11
CC(=O)c1ccc(OCC(=O)N(C2CCCCC2)C2CCS(=O)(=O)C2)cc1 (configuration not stated),-0.5,-1.0,2,1.1%,-6,-1
Cc1c(-c2cccc(NC(=O)Nc3ccccc3)c2)nc2ncccn12,0.7,x,x,1.3%,11,x
CCCCn1c(N)c(N(CC)C(=O)c2ccccc2C(F)(F)F)c(=O)[nH]c1=O,0.8,-0.9,1,0.1%,-5,1
COc1cc(/C=N/n2c(COc3ccccc3)n[nH]c2=S)cc(Br)c1O,-1.0,-4.7,-9,0.1%,-3,-13
Cc1ccc(-n2nc3ccc(N)cc3n2)cc1,-0.6,-9.7,22,1.1%,-6,12
Cc1ccc(C2(O)C(=O)c3ccccc3C2=O)c(O)c1C,0.6,2.2,-16,3.6%,-7,-1
COc1ccc(NC(=O)COC(=O)c2cc(Cl)ccc2O)cc1S(=O)(=O)N1CCCCC1,0.3,-5.2,11,2.5%,-5,-4
O=C(CCC(=O)c1cccs1)Nc1ccccc1F,-0.6,1.3,0,-0.6%,2,13
CCC(c1nnnn1-c1ccc2c(c1)OCCO2)N1CCN(C(=O)c2ccco2)CC1 (configuration not stated),-0.8,x,-11,6.3%,x,-1
CC(C)c1ccc(NC(=O)[C@H]2CSCN2C(=O)[C@@H]2CCC(=O)N2)cc1,1.4,-6.0,-6,0.5%,-13,0
CC1=NN(c2ccccc2)C(=O)C1N=Nc1cccc(O)c1 (configuration not stated),1.1,-4.7,u,4.3%,8,-30
CCOC(CNC(=O)c1ccc2c(c1)ncn2-c1cccc(F)c1)OCC,-0.2,4.0,5,2.8%,1,6
CN1CCN(c2ccc(S(=O)(=O)N3CCOCC3)cc2NC(=O)CCc2ccccc2)CC1,0.0,-4.6,x,0.5%,0,-1
O=c1ccc(Cl)cn1Cc1ccccc1F,2.2,2.3,7,-0.8%,-11,2
Cn1c(=O)[nH]c(=O)c2c1nc(N1CCCCCC1)n2CCN1CCCCCC1,1.3,-1.4,0,-3.1%,-3,-1
CCN(CC)C(=O)C1CCN(C(=O)c2cnn(-c3ccccc3)c2-n2cccc2)CC1,-0.4,x,x,1.1%,-2,x
Cc1cccc(C)c1OCC(=O)OC/C(O)=C(\C#N)c1nc2ccccc2[nH]1,0.6,2.0,-9,24%,-10,4

# No enrichment for hits (roughly 1% active in at least one column).
